TRPV1 PAM: HTS Assay for Compounds that Act as Potentiators of the Vanilloid Receptor 1. potentiation, % at 8.33 µM. TRPV1-expressing cells, Fluo-8 calcium influx, capsaicin EC20 potentiation; host cell line not named in the record; control for the full effect not named in the record. Transient receptor potential cation channel subfamily V member 1 (Homo sapiens), Q8NER1. actives 0.02% (n = 320,000); active means potentiation above 80%; inconclusive means 30% to 80%; inactive means below 30%; note: 0% is about no effect
Target sequence (Q8NER1 whole entry, looked up): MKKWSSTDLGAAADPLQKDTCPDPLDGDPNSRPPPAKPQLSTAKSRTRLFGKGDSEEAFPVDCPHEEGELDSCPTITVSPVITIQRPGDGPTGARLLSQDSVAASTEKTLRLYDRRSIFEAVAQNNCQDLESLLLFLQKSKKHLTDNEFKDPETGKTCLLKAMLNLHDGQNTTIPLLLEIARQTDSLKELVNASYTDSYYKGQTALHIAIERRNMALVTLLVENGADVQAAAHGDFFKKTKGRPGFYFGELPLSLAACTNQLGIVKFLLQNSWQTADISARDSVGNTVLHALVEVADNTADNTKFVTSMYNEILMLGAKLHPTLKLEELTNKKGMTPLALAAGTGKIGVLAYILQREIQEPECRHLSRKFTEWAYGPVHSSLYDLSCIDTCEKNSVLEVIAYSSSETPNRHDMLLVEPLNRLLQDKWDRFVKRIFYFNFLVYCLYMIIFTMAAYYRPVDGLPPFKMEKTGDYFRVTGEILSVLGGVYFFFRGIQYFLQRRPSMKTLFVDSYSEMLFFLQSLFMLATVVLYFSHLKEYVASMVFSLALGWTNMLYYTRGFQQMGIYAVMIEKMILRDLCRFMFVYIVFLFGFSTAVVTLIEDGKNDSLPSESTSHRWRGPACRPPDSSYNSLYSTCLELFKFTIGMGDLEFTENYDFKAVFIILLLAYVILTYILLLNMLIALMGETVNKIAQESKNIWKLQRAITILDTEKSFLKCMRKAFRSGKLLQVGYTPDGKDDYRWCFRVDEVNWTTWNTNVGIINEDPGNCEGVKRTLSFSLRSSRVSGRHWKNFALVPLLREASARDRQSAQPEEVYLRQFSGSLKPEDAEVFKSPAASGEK
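TRPV1-expressing cells were cultured overnight at 35.5C and loaded with Fluo-8 calcium dye for 40 to 90 min at room temperature. After a 10 s baseline, compound was added and calcium influx was read kinetically for 3 min (ex 480/em 520 nm).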
TRPML1 inh: qHTS for Inhibitors of the Human Mucolipin Transient Receptor Potential 1 (TRPML1). AID 624415, 2012. TRPML1-inducible cells, Ca2+ dye fluorescence, FDSS; hits give low values; inhibition of EC80 agonist-evoked calcium signal. actives 0.02% (n = 390,000). activity change, negative = inhibition, % (test concentration not listed). Mucolipin-1 (Homo sapiens), Q9GZU1; in the data active means activity change below about -50%; inconclusive means about -30% to -50%; inactive means above about -30%;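 note: stimulus is agonist 54-4 at its EC80 concentration; % is set by controls: 0 for no effect and ±100 for the full control effect; compound concentration not given in the record; the text of the record puts the active cut at -80%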
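TRPML1-DL cells, Tet-induced overnight (~16 h, 37 °C) at 1,500 cells/well, were loaded with Ca8 no-wash dye plus quencher for 45-90 min at room temperature. Compounds were pinned during FDSS kinetic reading; agonist 54-4 at EC80 (4 uM final) then added.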
ClpP mod: qHTS Assay for Activators of ClpP. Potency, µM (series often up to 57.5 µM), inactives show top-dose activity change, negative = active. AID 651965, 2013. ATP-dependent Clp protease proteolytic subunit (Bacillus subtilis (strain 168)), P80244. actives 1.9% (n = 340,000). purified B. subtilis ClpP, FRET peptide cleavage, 20 min; active = well fitted falling curve with a large enough effect; inconclusive = small, poorly fitted or top-dose-only effect; inactive = no such curve, though single readings can be large or run the other way; note: potency is the fitted concentration of half-maximal effect; the source files actives as falling curves though it sought activators and does not explain the sign; nearly all actives have a fitted effect of over 65% in size; many hits overshoot -100%
Target sequence (P80244 whole entry, looked up): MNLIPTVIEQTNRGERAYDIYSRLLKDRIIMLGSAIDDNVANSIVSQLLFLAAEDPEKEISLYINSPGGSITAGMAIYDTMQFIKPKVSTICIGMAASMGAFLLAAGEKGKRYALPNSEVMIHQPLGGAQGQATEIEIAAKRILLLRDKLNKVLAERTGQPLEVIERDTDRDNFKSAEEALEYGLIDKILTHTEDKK
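FRET quenching reversal measured ClpP activation: 10 microg/mL B. subtilis ClpP at pH 8 with the FRET-FV decapeptide, read at 430 nm after 320 nm excitation. The 20-min minus 0-min signal was scaled between DMSO/no-enzyme wells and ADEP (5.8 microM final).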
gsp antagonist: qHTS for Antagonists of gsp, the Etiologic Mutation Responsible for Fibrous Dysplasia/McCune-Albright Syndrome: qHTS | gsp-mutant cells, cAMP HTRF, 30 min; control for the full effect not named in the record | AID 624288, 2012 | Potency, µM (top dose mostly 76.9 µM), without a hit: at the highest dose activity change, negative = inhibition, actives largely listed as inhibitors | actives 0.4% (n = 340,000); active = falling curve of any shape with a large fitted effect; inconclusive = falling curve, mostly with a smaller effect; inactive = flat or rising curve; cell line not stated here;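 note: intracellular cAMP measured with PDE inhibitor Ro 20-1724 present during compound exposure; potency is the fitted concentration of half-maximal effect; % is set by controls: 0 for no effect and ±100 for the full control effect; nearly all actives have a fitted effect of over 65% in size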
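HTRF cAMP measurement after 30 min RT detection following 30 min, 37C compound treatment alongside […] (added as 300 uM solution) in G418-selected cells seeded at 2000/well and grown 16–24 h.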
Menin-MLL FL inh: qHTS Assay for Inhibitors Targeting the Menin-MLL Interaction in MLL Related Leukemias: Competition With Fluorescein Labeled MLL-derived Peptide. Fluorescence polarization, fluorescein-MLL peptide displacement from menin. FP activity change, % at 61.4 µM. 290,000 tested, under 10 active; inconclusive = falling polarisation curve, or a change in total fluorescence; inactive = total fluorescence flat and polarisation flat or rising; no compound was filed as active; the % refers to the polarisation; negative = inhibition;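 note: % of control where 0% means no effect; inhibitors lower the polarisation; unlabelled MLL peptide was the positive control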
gsp ag: qHTS for Agonist of gsp, the Etiologic Mutation Responsible for Fibrous Dysplasia/McCune-Albright Syndrome: qHTS. gsp mutant cells, cAMP HTRF, 30 min; control for the full effect not named in the record. Potency, µM (doses to about 76.9 µM), for the others: at the top dose activation (cAMP increase), hits mostly activators. actives 0.13% (n = 340,000). AID 624287, 2012; active = well fitted activation curve with a large enough effect; inconclusive = small, poorly fitted or top-dose-only effect, or another doubt; inactive = no such curve, though single readings can be large or run the other way; cell line not stated here;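 note: phosphodiesterase inhibitor Ro 20-1724 added with compounds to block cAMP breakdown; potency is the fitted concentration of half-maximal effect; nearly all actives have a fitted effect of over 60% in size; about a fifth of the inactives were tested at one dose only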
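Cells stably selected in G418 were plated at 2000/well, grown 16-24 hr, then given compounds in DMSO with the PDE inhibitor […] (300 uM solution added) for 30 min at 37C; cAMP was read by HTRF.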
Sfp PPTase inh: qHTS Assay for Inhibitors of Bacillus subtilis Sfp phosphopantetheinyl transferase (PPTase); 4'-phosphopantetheinyl transferase ffp (Bacillus subtilis), Q9F4F7; Biochemical Sfp PPTase activity, qHTS; Potency, µM, for inactives: max response, negative = inhibition, actives largely listed as inhibitors; actives 3.5% (n = 310,000); active = well fitted inhibition curve with a large enough effect; inconclusive = small, poorly fitted or top-dose-only effect, or another doubt; inactive = no such curve, though single readings can be large or run the other way;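 note: the enzyme is Sfp with the accession as filed and its product quenches rhodamine fluorescence; potency is the fitted concentration of half-maximal effect; 0% = enzyme reaction without inhibitor and -100% = no enzyme wells; top concentration of the series not given in the record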
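Fluorescence-quenching assay: 15 nM Sfp-PPTase preincubated 15 min at room temperature with compound, then 5 uM rhodamine-CoA and 12.5 uM BHQ-2-labelled YbbR peptide added. Fluorescence (ex 525/em 598 nm) read at start and after 30 min; difference gives rate.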
Numbers without * were called inactive; ? = inconclusive; nt = not tested or not shown; [ ] = dose if it differs, or a comment.

SMILES	TRPV1 PAM	TRPML1 inh	ClpP mod	gsp antagonist	Menin-MLL FL inh	gsp ag	Sfp PPTase inh
Cn1c(-c2ccc3c(c2)OCO3)cnc1NCc1ccc(Cl)cc1	-3.5	-10.4	?	6.3%	4.0	5.0%	?
Cc1c(Cl)cccc1-n1c(SCC(=O)N2CCC(C(=O)O)CC2)nnc1-c1ccncc1	-7.0	5.9	-8.7%	1.4%	-0.3	-146.1%[inhibitor]	17.3%
CCCCn1c(N)c(N(CCOC)C(=O)CCCn2c(=O)oc3ccccc32)c(=O)[nH]c1=O	nt	-2.4	nt	5.6%	nt	-0.8%[15.4 µM]	nt
CCCC(=O)Nc1ccc(S(=O)(=O)Nc2cc(C)nc(C)n2)cc1	-6.5	20.7	1.2%	-3.7%	3.8	5.5%	0.2%
CCOC(=O)c1[nH]c(C)c(C(=O)NC2CCCC2)c1C	10.2	11.8	1.2%	3.1%	4.9	?	25.2%
O=C(CCS(=O)(=O)c1cccc2nsnc12)NC1CCCCC1	-2.6	-4.4	-2.1%	4.7%	2.1	-36.4%[inhibitor]	-17.1%
Cc1ccc(NC(=O)CNC(=O)C23CC4CC(CC(C4)C2)C3)nc1	nt	31.3	-12.3%	nt	nt	-89.2%[inhibitor]	nt
O=C(Nc1ncccc1O)c1ccc(OCC2CCCO2)cc1 (stereo not given)	13.0	-15.0	-18.5%	2.0%	nt	16.9%	-0.4%
Nc1nc2nccc(-c3ccccn3)n2n1	5.4	-2.5	nt	7.8%	-2.1	-12.7%	4.0%
Cc1occc1C(=O)Nc1cc(C(C)(C)C)on1	-25.3	-7.7	-0.7%	12.6%	-1.6	-40.3%[inhibitor]	13.1%
O=C1CN(C(=O)CNC(=O)c2ccc(Cl)cc2Cl)CCN1	4.1	-9.6	nt	11.1%	-3.2	4.5%[15.4 µM]	19.4%
Cc1cccc2cc(C(c3nnnn3Cc3ccccc3)N3CCCc4ccccc43)c(=O)[nH]c12 (stereo not given)	1.8	18.6	-3.8%	43.5%[activator]	2.4	3.2%	21.1%
Cc1c(C(=O)NCCCN2CCOCC2)oc2ccc(S(=O)(=O)N3CCOCC3)cc12	-2.8	9.1	nt	-2.1%	-0.2	8.0%[15.4 µM]	12.8%
Cc1noc(/C=C/c2cccs2)c1S(=O)(=O)N1CCC(C(=O)NCCCN2CCCC(C)C2)CC1 (stereo not given)	5.2	-19.8	-1.9%	-10.4%	1.7	?	10.7%
CCCOc1ccc(-c2nnn(CC(=O)OCC)n2)cc1	-6.4	1.1	1.0%	-15.2%	0.3	-43.5%[inhibitor]	6.3%
NS(=O)(=O)c1ccc(CNC(=S)Nc2cc(S(=O)(=O)N3CCOCC3)ccc2Cl)cc1	nt	26.9	-1.3%	12.8%	nt	-3.8%	nt
COc1nc(-c2ccccc2)cc(C(F)(F)F)n1	-8.2	9.9	1.0%	9.3%	1.3	11.9%	15.5%
CCOC(=O)n1c(=O)oc2ccccc21	-5.1	-0.6	0.0%	1.6%	-6.1	9.0%	26.0%
Cc1ccc(S(=O)(=O)N(C)C[C@@H]2OCCCC[C@H](C)Oc3ccc(NC(=O)Nc4ccc(F)cc4)cc3C(=O)N([C@H](C)CO)C[C@H]2C)cc1	nt	0.4	-9.4%	nt	nt	?	nt
COc1cc(/C=C2\NC(=S)N(C)C2=O)ccc1O	-27.7	4.3	nt	-12.1%	?	-1.4%	?
O=C(NCc1ccco1)c1ccc2c(c1)N(Cc1ccc(Cl)cc1)CCS2	2.9	22.3	nt	-15.6%	-7.6	1.3%[15.4 µM]	3.1%
CNC(=O)c1c(NC(=O)CCS(=O)(=O)c2ccccc2)sc(C)c1C	-3.9	3.8	-0.2%	-5.8%	nt	3.7%[15.4 µM]	nt
CSCCC(NS(=O)(=O)c1ccccc1F)C(=O)NCC(C)(C)N1CCOCC1 (stereo not given)	-17.8	1.4	-4.2%	12.8%	nt	-54.7%[inhibitor]	nt
CCN1C(=O)/C(=C/C=C2/CCCN2C)OC1=S	-4.5	0.1	2.2%	-10.1%	?	-0.3%	-3.5%
COc1ccc2oc(-c3ccccc3)c(C(N)=O)c2c1	-8.4	9.4	31.6µM*	4.5%	2.4	-4.1%	6.7%
CC1(C)Cc2c(c(-c3ccccc3Cl)[nH]c(=O)c2C#N)CO1	1.6	-7.4	?	-6.5%	-0.8	11.1%	14.5%
COc1ccccc1N(C)S(=O)(=O)c1ccc(C(=O)Nc2ccncc2)cc1	-20.8	19.0	1.8%	-21.7%	nt	10.8%	nt
N=c1oc2c3c4c(cc2cc1C(=O)Nc1ccccc1)CCCN4CCC3	11.3	-6.0	2.3%	-17.3%	?	-8.3%[15.4 µM]	-26.3%
COc1ccc(CCN2C(=O)C(Oc3ccccc3)C2c2ccc3c(c2)OCO3)cc1 (stereo not given)	0.2	6.2	-0.4%	-24.2%	7.2	-4.8%	-1.3%
CCNc1nc(NCC)n2c(SCC(=O)Nc3cc(OC)ccc3OC)nnc2n1	-4.5	-3.5	-3.3%	8.5%	nt	-21.7%	nt
Cc1cc(F)ccc1NS(=O)(=O)c1c(C(=O)N2CCOCC2)c(C)n(C)c1C	2.1	-0.5	-0.3%	11.7%	7.9	-16.0%	12.4%
Cc1ccc(NC(=O)CS(=O)CC(=O)NC2CCN(Cc3ccccc3)CC2)c(C)c1 (stereo not given)	-3.9	-2.8	2.3%	21.6%	-0.4	-45.4%[inhibitor]	13.9%
CS(=O)(=O)NC1c2cccc3cccc(c23)C1Sc1nncn1/N=C/c1ccco1 (stereo not given)	3.0	-1.8	0.9%	-25.7%	-1.6	13.2%	7.4%
Cc1cc(C)c2c(c1)NC(C(=O)O)C1CC=CC21 (stereo not given)	13.7	-19.2	-9.8%	0.0%	?	-63.4%[inhibitor]	89.1µM*
Cc1nn(Cc2c(Cl)cccc2Cl)c(C)c1NC(=O)c1cnn2c(C(F)F)cc(-c3ccccc3)nc12	-1.1	26.4	0.5%	-11.8%	3.4	-7.7%	-26.5%
O=C1c2ccccc2C(=O)N1CCc1csc(-c2ccccc2)n1	-4.5	-11.1	-4.0%	-11.9%	1.5	-2.0%	-1.1%
CC(=C\c1ccco1)/C=C1/SC(=S)N(CC(=O)O)C1=O	22.9	9.4	nt	0.0%	?	?	28.2µM*
Cn1nc(C(F)(F)F)c(-c2cccc(C(F)(F)F)c2)c1NC(=O)CSCC(=O)O	?	3.3	nt	12.6%	-4.0	?	3.0%
CSCCC(=O)N1CCCC(CNC(=O)c2ccccc2Cl)C1 (stereo not given)	2.9	3.1	nt	2.2%	-0.6	?	3.2%
Cc1cc(C(=O)CN2C(=O)NC(C)(c3cc(F)ccc3F)C2=O)c(C)n1C1CC1 (stereo not given)	nt	-6.5	nt	-7.9%	nt	-23.4%	nt
O=C(Cn1cc2c(n1)CCCCC2)Nc1ccc(F)cc1F	-11.1	nt	nt	nt	1.7	nt	17.2%
Cc1cc(C)cc(NC(=O)CN2CCC(C(=O)c3ccccc3)CC2)c1	-8.1	19.7	nt	0.1%	-4.6	3.8%[15.4 µM]	-1.3%
Cc1ccsc1/C=N/NC(=O)c1nnn(-c2nonc2N)c1CN(C)c1ccccc1	-17.2	4.4	-0.8%	?	0.1	29.1%	2.5%
CNC(=S)NNC(=O)CCn1nc(C)c(Br)c1C	11.4	-26.2	-2.5%	3.7%	1.0	16.3%	-1.4%
CC(C)(C)c1ccc(/C=N/NC(=O)CN2CCS(=O)(=O)CC2)cc1	-0.9	19.6	-1.3%	11.2%	-1.7	-0.4%	4.5%
CC(=O)OC1CC2(C)C(C(C)=O)CCC2C2CCC3=CC(=O)CCC3(C)C12 (stereo not given)	nt	-18.2	nt	-8.3%	nt	-5.1%	nt
Cc1cccc(CSc2nnc(-c3cnccn3)n2C)c1	-2.8	0.9	-1.3%	4.8%	1.1	0.7%[15.4 µM]	9.8%
CCOC(=O)c1ccc(NC(=O)c2cccc(S(=O)(=O)N3CCN(C(C)=O)CC3)c2)cc1	-12.5	-25.0	nt	-19.8%	0.8	-23.6%	6.0%
Cc1cccc(N2C(S)=C(C#N)C(=O)NC23CCCCC3)c1	-3.6	7.7	2.4%	11.7%	-0.6	-2.2%	79.4µM*
COc1ccc(CCNC(=O)C(=O)NCC2OCCN2S(=O)(=O)c2ccc(C)cc2)cc1 (stereo not given)	18.1	5.6	0.4%	-0.2%	-2.8	-60.1%[inhibitor]	3.2%
O=C(COC(=O)c1ccc2ncsc2c1)Nc1cccc(Cl)c1	0.6	-9.9	-22.6%	-1.8%	nt	-46.2%[inhibitor]	nt
COc1cc(OC)cc(C(=O)NC(C(=O)Nc2ccc3nc(C)sc3c2)C(C)C)c1 (stereo not given)	8.7	-11.1	-6.2%	-13.6%	nt	-5.2%	nt
O=C1Nc2cc(Cl)ccc2C1(N1CCNCC1)C(F)(F)F (stereo not given)	-1.9	17.5	-1.0%	10.3%	3.1	-3.1%	8.5%

Another view of part of the listing above.
Structure | TRPV1 PAM | TRPML1 inh | ClpP mod | gsp antagonist | Menin-MLL FL inh | gsp ag | Sfp PPTase inh
CCOC(=O)c1ccc(NC(=O)c2cccc(S(=O)(=O)N3CCN(C(C)=O)CC3)c2)cc1 | -12.5 | -25.0 | nt | -19.8% | 0.8 | -23.6% | 6.0%
Cc1cccc(N2C(S)=C(C#N)C(=O)NC23CCCCC3)c1 | -3.6 | 7.7 | 2.4% | 11.7% | -0.6 | -2.2% | 79.4µM*
COc1ccc(CCNC(=O)C(=O)NCC2OCCN2S(=O)(=O)c2ccc(C)cc2)cc1 (stereo not given) | 18.1 | 5.6 | 0.4% | -0.2% | -2.8 | -60.1%[inhibitor] | 3.2%
